Source: PubChem BioAssay
2A Renilla: FMDV 2A StopGo reporter, Renilla signal; HEK cells with a luciferase reporter of 2A StopGo recoding; Potency, µM (titrated, usually from 57.5 µM), for inactives: top-dose signal change, negative = less light; 120,000 tested, 0.32% active; AID 1745857; active means well fitted falling curve with a large enough effect; inconclusive means small, poorly fitted or top-dose-only effect; inactive means no such curve, though single readings can be large or run the other way; note: nearly all actives have a fitted effect of over 55% in size; overnight with compound
StopGo FLuc: FMDV 2A StopGo reporter, firefly signal; HEK cells with a luciferase reporter of 2A StopGo recoding; Potency, µM (titrated, usually from 57.5 µM), without a hit: at the top dose signal change, negative = less light; 120,000 tested, 0.23% active; AID 1745856; active = well fitted falling curve with a large enough effect; inconclusive = small, poorly fitted or top-dose-only effect; inactive = no such curve, though single readings can be large or run the other way; note: nearly all actives have a fitted effect of over 60% in size; overnight with compound
The depositor's hits bear a star; ? = inconclusive; & = joins results of further samples; [ ] = another dose, or the depositor's remark. % is set by controls: 0 for no effect and ±100 for the full control effect; potency is the fitted concentration of half-maximal effect. Not all compounds are listed; rates above refer to the full screens.

SMILES	2A Renilla	StopGo FLuc
Cc1cc2occ(CC(=O)Nc3cccc(S(=O)(=O)N4CCOCC4)c3)c2cc1C(C)C	22%	?
CNS(=O)(=O)c1cn(CC(=O)Nc2cccc(OC)c2)cc1S(=O)(=O)NC	31%[activator]	-13%
O=C(NCc1cnn(-c2ccccc2)c1)C1CCN(S(=O)(=O)c2ccccc2C(F)(F)F)CC1	13%	5%
Clc1ccc(CSC(Cn2ccnc2)c2ccc(Cl)cc2Cl)cc1 (configuration not stated)	?	3%[11.5 µM]
COc1ccccc1NC(=O)c1c(C)cc(C)nc1SCC(=O)NC1CCCCC1	87%[activator]	10%
COc1ccc(-c2nc3c(c(SCC(=O)Nc4ccccc4F)n2)Cc2cc(C)ccc2O3)cc1	-4%	-13%
Cc1ccc(C)c(/C=C2\CCc3ccccc3C2=O)c1	15%	126%[activator]
OCCc1cnccn1	-9%	6%
COc1ccc(OC)c(-c2cc(C(=O)O)c3ccc(C)c(C)c3n2)c1	-4%	-7%
NCCCN1CCN(CCCN)CC1	-27%	-11%
CC1CCN(S(=O)(=O)c2ccc3c(ccc(=O)n3CC(=O)NCc3ccccc3)c2)CC1	?	?
C/C(=N/OC(=O)c1ccc(-c2cc(Cl)ccc2Cl)o1)c1ccccc1	1%	11%
Cc1ccccc1Cn1c(=O)n(CCc2ccccc2)c(=O)c2c(C)c(C)sc21	-8%	8%
CCc1ccc2c(Cl)c(C(=O)NC(C)c3ccncc3)sc2c1 (configuration not stated)	?	?
CCC(C)NC(=O)CCC(=O)NNc1nc2ccccc2c2nc(C)nn12 (configuration not stated)	-21%	-34%
CCCOC(=O)c1cncn1C(C)c1ccccc1 (configuration not stated)	-8%	-12%[11.5 µM]
Clc1ccc(-c2nnc(C3CCCCC3)o2)cc1	4%	67%[activator]
Cc1ccc(-c2cc(C(=O)N(C)C)c3ccccc3n2)c(C)c1	6%	14%
COCc1nn2c3c(cnc2c1-c1cccc(Cl)c1)C(=O)CC(c1cccs1)C3 (configuration not stated)	2%	8%
CCN1CCN(CCCNC(=O)CS(=O)(=O)Cc2nc(-c3ccccc3C)oc2C)CC1	-13%&-12%	-16%&-25%
COc1cccc(N2CC(NC(=O)COc3ccc4ccccc4c3)CC2=O)c1 (configuration not stated)	-5%	-16%
C/C(=N\NC(=O)c1ccc(C(C)(C)C)cc1)c1ccc(C)c(C)c1	7%	33%[activator]
O=C(NC(c1ccccc1)C1CC1)C1CCCO1 (configuration not stated)	-3%	-8%
COc1cc(-n2ccc3c(nnc4c(-c5cccc(Cl)c5)c(C)nn43)c2=O)cc(OC)c1OC	14%	22%
CSc1ccc(NC(=O)/C=C/c2cccs2)cc1	24%	175%[activator]
CC(Sc1nnc(-c2cccs2)n1-c1ccccc1)C(=O)Nc1ccc2c(c1)OCO2 (configuration not stated)	48%[activator]	-5%
CCN1C(=O)COc2ccc(-c3nc(NC(=O)c4cccnc4)sc3C)cc21	?	?
COc1ccc(N2CCN(C(=O)c3c(C)oc4ncnc(N5CCCCC5)c34)CC2)cc1	-12%	2%
CCN(Cc1cc2ccccc2[nH]c1=O)S(=O)(=O)c1ccc(OC)cc1	-31%	?
CCCCCCCn1c(CN2CCN(c3ccccc3F)CC2)nc2c1c(=O)n(C)c(=O)n2C	-6%	-14%

Structures shown so far that have a Cl atom, in the order listed:
SMILES	2A Renilla	StopGo FLuc
Clc1ccc(CSC(Cn2ccnc2)c2ccc(Cl)cc2Cl)cc1 (configuration not stated)	?	3%[11.5 µM]
C/C(=N/OC(=O)c1ccc(-c2cc(Cl)ccc2Cl)o1)c1ccccc1	1%	11%
CCc1ccc2c(Cl)c(C(=O)NC(C)c3ccncc3)sc2c1 (configuration not stated)	?	?
Clc1ccc(-c2nnc(C3CCCCC3)o2)cc1	4%	67%[activator]
COCc1nn2c3c(cnc2c1-c1cccc(Cl)c1)C(=O)CC(c1cccs1)C3 (configuration not stated)	2%	8%
COc1cc(-n2ccc3c(nnc4c(-c5cccc(Cl)c5)c(C)nn43)c2=O)cc(OC)c1OC	14%	22%

(continued)
SMILES	2A Renilla	StopGo FLuc
COc1ccccc1CNC(=O)CSc1nc2[nH]ncc2c(=O)n1-c1ccccc1	-4%	0%
O=c1c2c3c(sc2ncn1-c1ccc(Br)cc1)CCCC3	7%	39%[activator]
Brc1ccc(-c2noc(-c3ccc4c(c3)OCO4)n2)o1	1%[1.06 µM]	0%
COc1ccc(OC)c(NC(=O)c2c(NCc3ccc(C)o3)sc3c2CCC(C)C3)c1 (configuration not stated)	?	-16%
Cc1cccc(-n2c(SCC(=O)N3CCOCC3)nc3ccccc3c2=O)n1	-7%	5%
CCOc1ccc(Nc2nc(N3CCOCC3)c3cnn(C)c3n2)cc1	3%	2%
N#Cc1ccc(C(=O)NCCc2cccnc2)cc1	-1%	107%[activator]
Cc1ccc(-n2cc(-c3ccccc3)c3c(N4CCN(CCO)CC4)ncnc32)cc1Cl	-13%	-18%
Cc1ccc(-c2nc(NC(C)(C)CO)nc3ccccc23)cc1	-19%	5%
Cc1ccccc1NC(=O)c1cc2c(=O)n3cccc(C)c3nc2n1Cc1ccccc1	9%	20%
O=C(COc1cccc(Br)c1)NCCc1c[nH]c2ccccc12	-7%	-11%
COc1ccc(NC(=O)Cn2cnc3c(nc4n3CCCCC4)c2=O)c(OC)c1	-14%	-16%
Cn1cnc2c1c(=O)n(CCCSCc1ccccc1Br)c(=O)n2C	-8%	5%
CN1CCCC1=NCCCn1cnc2c1c(=O)n(C)c(=O)n2C	-6%	3%
COc1ccc(CCNC(=O)Cc2c(C)c3cc(OC)c(OC)cc3oc2=O)cc1	?	-5%

Compound profiles, from the list above. Values in the order: 2A Renilla, StopGo FLuc
Cc1ccc(-c2nc(NC(C)(C)CO)nc3ccccc23)cc1 in the list: -19%, 5%
N#Cc1ccc(C(=O)NCCc2cccnc2)cc1 in the list: -1%, 107%[activator]
O=c1c2c3c(sc2ncn1-c1ccc(Br)cc1)CCCC3 in the list: 7%, 39%[activator]
COc1ccc(NC(=O)Cn2cnc3c(nc4n3CCCCC4)c2=O)c(OC)c1 in the list: -14%, -16%

More compounds follow:
SMILES	2A Renilla	StopGo FLuc
CCn1nc(C(=O)N(C)Cc2ccccc2N2CCCC2)c2ccccc2c1=O	6%	-21%
O=C(C1CN(C(=O)c2cc(Cl)ccc2Cl)c2ccccc2O1)N1CCOCC1 (configuration not stated)	8%	-11%
CC(NC(=O)/C=C/c1ccsc1)C1CCCO1 (configuration not stated)	7%	0%
c1ccc(C2=Nn3c(nnc3-c3cnccn3)SC2)cc1	-10%	-7%
CCCn1c2ccccc2c2cnn(CC(=O)N(C)c3ccccc3CC)c(=O)c21	3%	?
CCOc1ccccc1NC(=O)CCNS(=O)(=O)c1ccc2c(c1)CCN2C(=O)C1CC1	-10%	-17%
COC(=O)c1c(-c2ccc(Cl)cc2)noc1N1CCN(c2ccc(F)cc2)CC1	-7%	-6%
Cc1ccc(Nc2nc(-c3ccc([N+](=O)[O-])cc3)nc3ccccc23)cc1	-12%	-4%
COc1ccc(NC(=O)c2nc3nc(C)cc(C(F)F)n3n2)c(C)c1	2%	33%[activator]
COC(=O)[C@]12C[C@H](CC(=O)NCCCN3CCCC3=O)C(=O)N(Cc3ccc(Cl)cc3Cl)C1=C[C@H](C(C)C)O[C@@H]2C1CC1	8%	9%
O=C(O)c1occc1-c1cccs1	-6%[1.06 µM]	?
CCOC(=O)c1c(NC(=O)c2cc3nc(-c4ccc(OC)cc4)cc(C(F)(F)F)n3n2)sc(C)c1C	-6%	0%
CC(=O)c1cccc(S(=O)(=O)NCCC(=O)NC2CCCCCC2)c1	26%	12%
CCOC(=O)c1ccc(Nc2c(-c3ccc(N(C)C)cc3)nc3nc[nH]n23)cc1	?	?
Cc1cccc(-n2ncc3c(NCCOCCO)ncnc32)c1	-3%	205%[activator]
Cc1nnc(NCc2ccccc2)c2c1nnn2Cc1ccccc1Cl	2%	-13%
Cc1cccc(OCC(=O)Nc2ccccc2C(=O)OCc2cc(=O)n3ccsc3n2)c1	-8%	4%
Cc1cccc(N2CCN(Cc3ncc(-c4ccc(Cl)cc4)o3)CC2)c1	-9%	-4%
Cn1c(=O)c2c(nc(NCc3ccccc3)n2CC(O)CO)n(C)c1=O (configuration not stated)	-2%	-15%
COc1cc2c(c(OC)c1)C(c1cc(OC)c(OC)c(OC)c1)CC(=O)N2 (configuration not stated)	314%[activator]	8%
Cc1cc(C)c(NC(=O)Cn2c(=O)n(CCC(=O)NCc3ccccc3Cl)c(=O)c3sccc32)c(C)c1	9%	-7%
O=C(COc1cc(O)c2c(=O)cc(-c3ccccc3)oc2c1)NCCOCCO	8%	23%
COc1ccccc1OCCn1c(NC(=O)c2ccc(Cl)cc2)nc2ccccc21	-2%	-19%
NC(=O)CNC(=O)c1ccc(CNCc2ccc(C(F)(F)F)cc2)cc1	-10%	-1%
COC(=O)C(C)NC(=O)c1ccc(COC(C)=O)cc1 (configuration not stated)	3%	26%
COc1ccc(CN2C(=O)c3oc4ccccc4c(=O)c3C2c2ccc(O)c(OC)c2)cc1 (configuration not stated)	?	-9%
O=C(Nc1cccc(OCC2CCCO2)c1)C1CCCCC1 (configuration not stated)	12%	23%
COc1cccc(C(=O)Nc2nc(-c3nnn(-c4ccccc4C(F)(F)F)c3C)ns2)c1	?	-19%
O=S(=O)(Nc1ccccc1-c1n[nH]c(C2CC2)n1)c1ccc(F)cc1Cl	69%[activator]	0%
CCCCCn1c(SCc2ccc(C)cc2)nc2c1c(=O)[nH]c(=O)n2C	-10%	-11%
Cc1cc(CC(=O)O)n(C)c1C(=O)c1ccc(Cl)cc1	-12%	-17%
COc1cc(/C=C2/NC(=O)NC2=O)cc(Cl)c1OCc1ccc(C(=O)O)cc1	-3%	-3%
O=C(O)c1cccc(OCc2nnnn2-c2ccc(Cl)c(Cl)c2)c1	18%	17%
COc1ccc(-c2oc3ncn4nc(-c5ccccc5Br)nc4c3c2-c2ccc(OC)cc2)cc1	-5%	-16%
Cc1cc(N/N=C/c2ccc(Cl)c([N+](=O)[O-])c2)nc2ccccc12	-12%	166%[activator]
O=C(NCc1cccc(Cl)c1)c1oc(=O)c2ccccc2c1-c1ccccc1	-7%	-21%
CCc1cc(=O)oc2c(C)c(OCc3ccccc3)ccc12	18%	43%[activator]
Cc1ccc2c(Cl)cc(Cl)c(OCC(=O)NCCC#N)c2n1	-4%	-8%
CCN(CC)C(=O)CSc1nc2ccccc2c(=O)n1Cc1ccco1	4%	-9%
COc1ccccc1NC(=O)c1c(NCc2ccc(C)o2)sc2c1CCCCC2	-4%	-18%
CCCCNC(=O)c1cnc2sc(N3CCCCC3)nn2c1=O	-2%	8%
COc1ccc(Cn2ccc3nc(C)c(C(=O)N4CCN(c5cccc(OC)c5)CC4)cc3c2=O)cc1	-3%	-23%
O=C(c1ccco1)N1CCC(C(=O)N2CCN(C(=O)c3ccco3)CC2)CC1	-8%	1%
COc1ccc(OC)c(NC(=O)c2cc3cccc(OC)c3oc2=O)c1	-1%	-5%
COc1cc(/C=C(/C#N)c2nc3ccccc3[nH]2)cc2c1OCCO2	35%[activator]	316%[activator]
Cc1ccc(-c2nnn(Cc3cc(Cl)c4c(c3)OCCCO4)n2)cc1	-27%	-21%
COc1cccc(-c2cc(C(=O)O)c3cc(C)cc(C)c3n2)c1	23%	0%
Cc1cccn2c(=O)c3cc(C(=O)NCc4cccnc4)c(=N)n(CCCO)c3nc12	3%	-12%
Cc1csc(CNC(=O)c2ccc(CNC(=O)c3cccs3)cc2)n1	5%	-4%
Cc1ccc(NC(=O)Cn2c(=O)c3c(C)cc(C)nc3n(-c3ccccc3)c2=O)c(Cl)c1	-5%	1%
Cc1cccc(C2CCCN2C(=O)c2cc(C(C)C)on2)c1 (configuration not stated)	20%	74%[activator]
O=C(CSc1nc2ccccc2c(=O)n1-c1ncn[nH]1)Nc1cccc(F)c1	10%	10%
O=C(COC(=O)c1sc2cc(F)ccc2c1Cl)Nc1ccccc1	-9%	15%
COc1ccc2c(c1)c1c3n2CCN(C)C3=NCC1	-9%	-15%
CNC(=O)c1ccc(-c2nc(CN3CCN(S(=O)(=O)c4ccccc4)CC3)c(C)o2)cc1	-8%	3%
O=C(Nc1ncn[nH]1)c1cccc(S(=O)(=O)N2CCCCC2)c1	10%	3%
CCOc1ccc(NC(=O)CC2C(=O)N(c3ccc(C)cc3)C(=O)N2C2CCCCC2)cc1 (configuration not stated)	18%	26%
C=CCn1c(N2CCN(c3ccccc3)CC2)nc2c1c(=O)[nH]c(=O)n2C	-1%	14%
CC(C)c1ccc(NC(=S)NC2CCSc3ccccc32)cc1 (configuration not stated)	13%[1.06 µM]	0%
CN(C)CCSc1nc(N2CCOCC2)c2c(c1C#N)CCCC2	-7%	-3%
Next section
SMILES	2A Renilla	StopGo FLuc
CCNc1c(NS(=O)(=O)c2ccc(C)cc2)c(=O)oc2ccccc12	-6%	-14%
COc1ccc(C2=C(N3CCN(c4cccc(C)c4C)CC3)c3ccccc3C2=O)cc1	-3%	-3%
COc1cccc(NC(=O)c2c(F)cccc2F)c1	14%	150%[activator]
CC(C)OCCCNc1nc2c(c(=O)n(C)c(=O)n2C)n1Cc1ccc(Br)cc1	-7%	-8%
Cc1cccc(-n2nnnc2C2(Nc3ccccc3C)CCCCC2)c1	181%[activator]	13%
CCOC(=O)N1CCC(NC(=O)c2ccc3c(c2)N(Cc2cc(C)ccc2C)C(=O)c2ccccc2S3=O)CC1 (configuration not stated)	20%	0%
CCn1c(SC(C(=O)N2CCOCC2)c2ccccc2)nnc1-c1ccccc1OC (configuration not stated)	34%[activator]	4%
COc1ccc(S(=O)(=O)N2CCN(c3cc(N4CCCC4)nc(C)n3)CC2)cc1OC	80%[activator]	5%
O=C(Cc1cccs1)N/N=C/c1cccc2ccccc12	0%	316%[activator]
CCOC(=O)c1ccc(NC(=O)C2CC(=O)Nc3ncnn32)cc1 (configuration not stated)	-13%	-13%
